Screening results from PubChem.
Rango-impB inh – prevents formation of the Rango-importin beta complex | Q14974 | Rango CFP/YFP FRET sensor + importin beta, 45 min | Potency, µM (doses to about 92.2 µM), inactives show at the highest dose inhibition of complex formation | actives 0.031% (n = 340,000); active = rising FRET ratio curve, often small or poorly fitted; inconclusive = mostly compound fluorescence or quenching in the first reads; inactive = flat curves in all reads;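 further: potency means the concentration at half of the fitted maximal effect; 0% = DMSO wells and 100% = buffer wells lacking importin beta; nearly all actives have a fitted effect of over 15% in size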
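FRET biosensor (snurportin 1 IBB flanked by EYFP and cerulean), 50 nM, with compound 5 min, then 0.125 microM importin beta in PBS, 1 mM DTT, 0.02% Tween-20, 0.1% BSA. CFP/YFP ratio read after 45 min at room temperature; pre-read flags interference.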
miR-21 FLuc – raises the signal of a miR-21 reporter; HeLa miR-21 FLuc reporter, luciferase, 48 h; Potency, µM (highest dose often 38.3 µM), inactives show top-dose reporter change, positive = more light; 340,000 tested, under 10 active; active = well fitted rising curve with a large enough effect; inconclusive = small, poorly fitted or top-dose-only effect; inactive = no such curve, though single readings can be large or run the other way;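 further: % of control where 0% means no effect; miR-21 action dims this reporter so a rising signal means less miR-21 action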
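Compounds were titrated across several concentrations (up to approximately 40 uM) and incubated 48 hours with HeLa miR-21-FLuc reporter cells (miR-21 target sequence downstream of FLuc, endogenous miR-21). Readout was firefly luciferase luminescence after lytic detection reagent.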
GLA inh pH 4.5 – inhibitors of human alpha-galactosidase A at pH 4.5 | purified enzyme, 4-MU-alpha-Gal fluorescence, pH 4.5 | activity change, negative = inhibition, % at 105 µM | P06280 | 230,000 tested, under 10 active | AID 1467; inconclusive = small, poorly fitted or top-dose-only inhibition, or a rising curve; inactive = flat fitted curve, though single readings scatter; no compound was filed as active;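 further: 0% = full activity with enzyme and -100% = basal without enzyme; dose as in the result columns while the protocol names 77 µM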
Target sequence (P06280 whole entry, looked up): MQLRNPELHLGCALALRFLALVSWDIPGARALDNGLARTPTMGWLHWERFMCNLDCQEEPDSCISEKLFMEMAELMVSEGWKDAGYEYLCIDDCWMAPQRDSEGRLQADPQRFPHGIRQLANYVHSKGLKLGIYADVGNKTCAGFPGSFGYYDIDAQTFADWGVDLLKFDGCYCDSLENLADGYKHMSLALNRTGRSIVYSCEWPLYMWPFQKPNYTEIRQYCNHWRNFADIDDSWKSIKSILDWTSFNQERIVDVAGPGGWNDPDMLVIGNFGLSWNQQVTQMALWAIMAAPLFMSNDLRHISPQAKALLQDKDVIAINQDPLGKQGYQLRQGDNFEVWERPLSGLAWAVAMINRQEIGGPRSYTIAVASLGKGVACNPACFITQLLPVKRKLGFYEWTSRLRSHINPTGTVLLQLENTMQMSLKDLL
Rango dissoc inh – prevents RanGTP from dissociating the Rango-importin beta complex; Potency, µM (titrated, usually from 46.1 µM), without a hit: at the top dose activity change, negative = inhibition; Biochemical FRET Rango-importin beta, RanGTP-induced dissociation; actives 0.071% (n = 340,000); AID 540253; active means falling FRET ratio curve, often poorly fitted, with flat reads before Ran was added; inconclusive means other falling curves, or compound fluorescence or quenching; inactive means flat or rising ratio curve;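 further: potency means the concentration at half of the fitted maximal effect; % of control where 0% means no effect; nearly all actives have a fitted effect of over 45% in size; -100% = wells without RanGTP and RCC1; the record marks most hits as doubtful in a second field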
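Compounds preincubate 5 min with complex of recombinant Rango and importin beta in PBS with 1 mM DTT. Ran (0.6 uM) loaded with 2 mM GTP plus 0.2 uM RCC1 starts dissociation; FRET is recorded 45 min later.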
The depositor's hits bear a star; u = inconclusive; x = no result given; & = joins results of further samples. These rows are one share of the data. The share of hits here may be higher or lower than overall.

SMILES	Rango-impB inh	miR-21 FLuc	GLA inh pH 4.5	Rango dissoc inh
COCC(=O)Nc1ccccc1NC(C)=O	-1.0%	-10%	-3	1%
C(=N\n1cnnc1)/c1ccc(N2CCOCC2)cc1	-0.5%	-10%	7	-2%
O=C1CC(C(=O)Nc2ccccc2)N=C(N2CCCCC2)N1 (stereo unspecified)	-3.5%	-15%	-1	-5%
COc1ccccc1-c1cccc([C@@H]2C[C@H]3[C@H](CON3C)CN2S(=O)(=O)c2ccccc2C)c1	0.6%	x	x	-5%
CCOc1ncccc1C(=O)OC(C)C(=O)Nc1ccc(CC)cc1 (stereo unspecified)	-2.7%	0%	2	3%
COc1cccc(Oc2ccc(N)cc2)c1	0.0%	-6%	4	9%
CC1CCN(C(=O)c2cccc(S(=O)(=O)N3CCCc4ccccc43)c2)CC1	0.1%	x	x	0%
Cc1nn2c(=O)cc(CSCC(=O)Nc3ccccc3F)nc2s1	-0.4%	1%	x	7%
O=S(=O)(Nc1cccc(C(F)(F)F)c1)c1cnc[nH]1	8.5%	-9%	-12	4%
Cc1nn(C(=O)C(C)N2C(=O)c3ccccc3C2=O)c(C)c1Br (stereo unspecified)	1.9%	-4%	4	-12%
NC(=O)c1cc(S(=O)(=O)NCc2cccs2)cs1	0.6%	0%	x	-7%
Cc1ccc(C)c(NC(=S)N2CCC(NC(=O)c3ccco3)CC2)c1	0.9%	1%	x	1%
CN(C(=O)c1cccc(NC(=O)Cc2ccc(NC(=O)C3CCN(C(=O)CCc4ccccc4)CC3)cc2)c1)C1CCC1	0.1%	x	x	1%
CC1CCCCC12NC(=O)N(CC(=O)Nc1ccc(OC(F)F)cc1)C2=O (stereo unspecified)	-1.4%	x	x	-16%
CN(Cc1ccccc1)C(=O)c1cccc(NC(=O)Cc2cccc(NC(=O)C3CCN(C(=O)c4ccccc4)CC3)c2)c1	-1.6%	x	x	16%
Cc1sc2nc(CSC(C)C(=O)Nc3ccc(C(N)=O)cc3)[nH]c(=O)c2c1C (stereo unspecified)	u	x	x	0%
Cn1c(C(=O)NCCCN2CCN(c3ccccc3F)CC2)cc2c(=O)n(C)c3ccccc3c21	0.2%	2%	-6	-10%
COc1ccc(OCC(O)CNC(=O)Nc2ccccc2)cc1 (stereo unspecified)	-0.3%	1%	1	-16%
CSCCC(NC(=O)COc1ccccc1)C(=O)OCC(=O)c1cc2ccccc2o1 (stereo unspecified)	0.9%	-7%	-22	-3%
O=C(NCc1cccc(Cl)c1)c1ccc(S(=O)(=O)Nc2cccc(C(F)(F)F)c2)cc1	2.6%	7%	-6	-3%
CC(=O)C1=C(O)C(=O)N(c2ccc(Br)cn2)C1c1cccc([N+](=O)[O-])c1 (stereo unspecified)	-3.3%	-6%	x	-9%
Cc1ccc(NC(=O)c2cc(-c3ccccc3)n[nH]2)cc1	-3.2%	-5%	x	4%
CCOc1nc2c(c(-c3cccs3)c1C#N)Cc1ccccc1-2	-0.6%	-4%	7	-11%
Cc1ccc2nc(-c3cccnc3)c(NC3CCCCC3)n2c1	5.8%	-6%	-6	13%
CCOC(=O)C1=C(c2ccccc2)NC(=O)NC1c1ccc(OC)cc1 (stereo unspecified)	-0.2%	-2%	1	1%
(list continues)
SMILES	Rango-impB inh	miR-21 FLuc	GLA inh pH 4.5	Rango dissoc inh
O=C(NCc1cccnc1)C1CCC(CNS(=O)(=O)c2cccc3nsnc23)CC1 (stereo unspecified)	0.2%	1%	0	23%
Cc1ccc(CNC(=O)C2CCCN(S(=O)(=O)c3c(C)[nH]c(=O)[nH]c3=O)C2)cc1 (stereo unspecified)	-0.2%	1%	14	0%
CC(C)(C)C1CCC(OC(=O)C[N+]2(C)CCCC2)CC1 (stereo unspecified)	5.5%	-1%	2	-3%
O=C(CCCN1C(=O)CCC1=O)Nc1ccc(Br)cc1F	-2.2%	-10%	-4	-4%
CCC(CC)C(=O)Nc1cccc(C(=O)Nc2ccc3c(c2)OCO3)c1	-5.5%	-44%	-22	5%
COC(=O)c1cc(Br)c(=O)n(CCC2=CCCCC2)c1	-0.9%	-5%	1	-6%
CCn1cnc2sc(-c3ccccc3)cc2c1=O	2.7%	-61%	-16	-4%
CCOc1ccccc1C(=O)NC(C(=O)NCCc1ccccn1)C(C)C (stereo unspecified)	1.7%	x	x	-8%
Cc1ccc(N(CC(=O)N2CCN(c3ccc(F)cc3)CC2)S(=O)(=O)c2c(C)noc2C)cc1	-3.1%	16%&16%	x	7%
O=C(Nc1cccc(Cl)c1)Nc1ccc(Cl)cn1	0.5%	-11%	6	20%
CCc1ccc(N2C(=O)CN(Cc3sccc3C)C2=S)cc1	1.5%	-15%	2	-8%
CCOC(=O)CSc1nccc(N(C)C)c1C#N	4.6%	-3%	6	-20%
CCOC(=O)C1=C(COC(=O)c2ccc(Cl)c(S(=O)(=O)N3CCOCC3)c2)NC(=O)NC1C (stereo unspecified)	0.8%	x	x	-4%
CC(=O)Nc1cc(C(F)(F)F)ccc1N1CCOCC1	2.9%	-4%	2	-4%
CC(C)c1ccc(/C=C/C(=O)O)cc1	-1.5%	-8%	7	-4%
COc1ccc(-n2nc(C(=O)NCC(=O)NCCCN3CCOCC3)c3ccccc3c2=O)cc1Cl	2.4%	0%	x	-13%
O=C(c1ccccc1)N1CCN(C(=O)c2cccnc2)CC1	5.6%	0%	x	28%
CC(C)(C)c1cc(NC(=O)COC(=O)c2ccc(O)cc2O)n(-c2ccccc2)n1	0.3%	x	x	-1%
NC(=O)C1CCN(c2nc(-c3ccc4c(c3)OCCO4)cs2)CC1	3.8%	x	x	-20%
COc1ccc(CC(=O)N2CCCc3ccccc32)cc1OC	-0.6%	-5%	-15	-13%
O=C(O)c1c2c(nc3ccc(Cl)cc13)CCC2	-1.4%	1%	2	-6%
COCCCNC(=O)CNC(=O)c1nn(-c2ccc(OC)cc2)c(=O)c2ccccc12	0.1%	-1%	x	24%
CC(Sc1n[nH]c(N)n1)C(=O)Nc1cccc2ccccc12 (stereo unspecified)	4.6%	x	x	17%
Clc1ccc(-c2cc(CN3CCCCC3)no2)cc1Cl	-3.7%	-42%	x	9%
Cc1ccc(-c2ccc(/C=N/n3cnnc3)o2)cc1Cl	0.0%	-12%	-11	-5%
Other entries
SMILES	Rango-impB inh	miR-21 FLuc	GLA inh pH 4.5	Rango dissoc inh
CCS(=O)(=O)N1CCC2(CC1)OCCN2S(=O)(=O)c1ccc(OC)cc1	-2.7%	x	x	-2%
COc1cc(C2C(C#N)=C(C)NC3=C2C(=O)c2ccccc23)cc(OC)c1OC (stereo unspecified)	2.9%	22%	-3	0%
CCCCCCC#Cc1cncc(C(=O)NNC(=O)Nc2cc(Cl)cc(Cl)c2)c1	5.1%	-4%	0	2%
COc1ccc(OC)c(S(=O)(=O)N2CCN(C(=O)CCc3ccccc3)CC2)c1	1.3%	x	x	10%
CN1CCN(S(=O)(=O)c2cccc(C(=O)Oc3ccc(C(C)(C)C)cc3)c2)CC1	3.7%	x	x	0%
O=C(Nc1ccc([N+](=O)[O-])cc1)Nc1ccc(OC(F)F)c(Cl)c1	0.4%	u	-3	-9%
Cc1ccccc1NC(=O)c1cccc(N2C(=O)C3C4CC(C(Br)C4Br)C3C2=O)c1 (stereo unspecified)	-0.6%	2%	x	-8%
CC(O)CNc1nc2c(c(=O)n(C)c(=O)n2C)n1Cc1cccc(Br)c1 (stereo unspecified)	0.9%	8%	2	-19%
Cc1cccc(OCC(=O)Nc2ccc3c(C)cc(=O)oc3c2)c1	0.6%	-11%	1	12%
CCN(CC(=O)Nc1c(F)cccc1F)C(=O)C1CCN(C(=O)Nc2ccccc2)CC1	u	x	x	1%
O=C(NC(=S)NNS(=O)(=O)c1ccccc1)c1cccnc1	1.8%	-3%	-1	-10%
CC1CCCCN1S(=O)(=O)c1ccc(C(=O)Nc2nnc(-c3ccncc3)o2)cc1 (stereo unspecified)	6.8%	u	6	17%
Cc1ncsc1CCOC(=O)C12CC3CC(CC(C3)C1)C2	0.0%	0%	-2	-3%
CCOC(=O)N1CCC(Nc2c(-c3ccc(C)cc3)c(=O)c2=O)CC1	-1.7%	-4%	-4	1%
O=C(NCc1ccco1)c1ccc(COCC(F)(F)F)cc1	-0.1%	-15%	-3	8%
CCn1c(=O)cc(OCC(=O)Nc2ccccc2C#N)c2ccccc21	-3.8%	-2%	-6	-15%
Cc1ccc(S(=O)(=O)N2CCCN(S(=O)(=O)c3ccc(C)cc3)CC2)cc1	0.8%	1%	-1	-3%
CCOc1ccc(CN2CCNC(=O)C2CC(=O)NCCc2ccccn2)cc1 (stereo unspecified)	-0.6%	-9%	3	u
CN(C)c1ccc(P(=O)(Nc2ccccc2)N2CCOCC2)c(NC(=O)c2cccs2)c1 (stereo unspecified)	-1.0%	-5%	-7	22%
CCOC(=O)N1CCN(S(=O)(=O)c2c(C)[nH]c(=O)[nH]c2=O)CC1	0.8%	-5%	-6	-5%
O=C(O)c1ccccc1-c1ccccc1C(=O)Nc1ccc2c(c1)CCC2	-0.9%	-1%	x	-15%
Nc1nnnn1/N=C/c1ccc(N2CCCCC2)c([N+](=O)[O-])c1	5.0%	-70%	-1	26%
COC(=O)Cc1ccc(OC(=O)C2CCN(S(=O)(=O)c3ccc(OC)c(OC)c3)CC2)cc1	-1.3%	x	x	-16%
CC(=O)Nc1ccc(OCc2ccc(S(=O)(=O)Cc3ccccc3)cc2)cc1	1.6%	4%	9	-4%
CC(O)CNc1nc2ccccc2n1CC(=O)N1CCN(Cc2ccccc2)CC1 (stereo unspecified)	-1.3%	-2%	1	5%
Next section:
SMILES	Rango-impB inh	miR-21 FLuc	GLA inh pH 4.5	Rango dissoc inh
O=[N+]([O-])CC(c1ccc(F)cc1)c1c[nH]c2ccccc12 (stereo unspecified)	-0.2%	25%	x	-5%
Cc1csc2c(N(C)CCO)ncnc12	-0.4%	-22%	-5	-3%
N#C/C(=C/c1cccc(O)c1)C(=O)NCc1ccc(Cl)cc1	-3.6%	0%	x	-1%
Fc1ccc(NC(=S)Nc2cc(-c3ccccc3)[nH]n2)cc1Cl	0.0%	21%	-9	-3%
CCOC(=O)N1CCC(NC(=O)C2CCCN2C(=O)OCc2ccccc2)CC1 (stereo unspecified)	1.3%	0%	-6	12%
CC1=C(C(=O)OCC2CCCO2)C(c2ccncc2)C2=C(CCCC2=O)N1 (stereo unspecified)	u	-1%	10	-22%
O=C(CSc1nc2ccccc2[nH]1)N1CCN(c2ccccc2)CC1	0.5%	-15%	-11	12%
CCOC(=O)c1cc(-c2ccc(/C=C3/C(=O)NC(=O)C(C#N)=C3C)o2)ccc1Cl	u	-11%	-5	-13%
COc1ccc2oc(=O)c(C(=O)NCC3CCCO3)cc2c1 (stereo unspecified)	u	-31%	0	u
Cc1ccc(-c2noc(N=O)c2NO)cc1	11%	-1%	-3	-4%
COc1cccc2sc(NC(=O)c3ccc(Br)s3)nc12	-0.5%	-33%	1	19%
COc1ccc(OC)c(-c2nn(-c3ccccc3)cc2C(=O)NCC(c2ccco2)N2CCCC2)c1 (stereo unspecified)	-0.4%	x	x	-7%
CC1CCN(C(=S)c2cccc([N+](=O)[O-])c2)CC1	0.4%	-13%	1	-1%
